Six1-Eya2 blk – Six1/Eya2 interaction inhibition. Q15475+O00167. AlphaScreen GST-Six1/His-Eya2 binding, biochemical; active compounds read low; control for the full effect not named in the record. activity change, % (test concentration not listed). 0.56% of 360,000 active. AID 651725; in the data active = activity change below about -65%; inconclusive = about -30% to -65%; inactive = above about -30%; note: % is set by controls: 0 for no effect and ±100 for the full control effect
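GST-Six1 + His-Eya2 (5X stock: 250/500 nM); Tris pH 8.0, 300 mM NaCl, 0.05% BSA, 0.02% Tween 20; GSH donor/Ni acceptor beads; 1 h 37 °C dark; AlphaScreen readout.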
CtBP-E1A inh – blocks the CtBP interaction with E1A; AlphaScreen GST-E1A/His-CtBP binding, 1536-well; active compounds read low; control for the full effect not named in the record; activity change, % (no concentration beside the values); 0.49% of 340,000 active; AID 651724; in the data active means activity change below about -65%; inconclusive means about -30% to -65%; inactive means above about -30%; note: % is set by controls: 0 for no effect and ±100 for the full control effect
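GST-E1A and His-tagged CtBP (125 nM each as 5X stock) were preincubated with pin-transferred compound for 2 h at 37 °C in the dark, then glutathione donor and nickel acceptor beads were added for 1 h before AlphaScreen reading.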
TRPML1 ag – human mucolipin-1 channel agonism; Q9GZU1; TRPML1-expressing cells, Ca2+ dye fluorescence, FDSS; host cell line not named in the record; reference of the full effect not given here; activation, % (concentration not given with the values); 0.12% of 410,000 active; in the data active = activation above about 50%; inconclusive = about 30% to 50%; inactive = below about 30%; note: 0% is about no effect; the text of the record puts the active cut at 80%
Target sequence (Q9GZU1 whole entry, looked up): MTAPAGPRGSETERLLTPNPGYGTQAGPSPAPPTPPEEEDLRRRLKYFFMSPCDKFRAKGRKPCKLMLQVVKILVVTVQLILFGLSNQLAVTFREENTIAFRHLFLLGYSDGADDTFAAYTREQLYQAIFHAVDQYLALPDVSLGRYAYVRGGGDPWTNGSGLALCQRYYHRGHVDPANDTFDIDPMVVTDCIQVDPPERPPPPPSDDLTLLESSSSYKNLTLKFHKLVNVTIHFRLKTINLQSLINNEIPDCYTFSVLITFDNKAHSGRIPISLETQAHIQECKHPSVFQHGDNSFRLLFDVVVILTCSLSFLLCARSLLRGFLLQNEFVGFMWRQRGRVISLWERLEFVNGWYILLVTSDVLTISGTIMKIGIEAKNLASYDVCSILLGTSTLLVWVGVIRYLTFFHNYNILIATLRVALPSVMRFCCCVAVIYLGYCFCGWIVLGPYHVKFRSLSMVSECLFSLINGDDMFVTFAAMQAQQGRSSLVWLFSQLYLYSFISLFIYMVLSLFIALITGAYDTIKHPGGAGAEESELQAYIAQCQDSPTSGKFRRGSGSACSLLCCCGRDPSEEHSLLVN
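Kinetic FDSS Ca2+ read in Tet-induced TRPML1-DL cells (ABD Ca8 dye plus quencher, 45-90 min RT loading): baseline, then compound, then 110 s agonist window; EC80 agonist 54-4 at 4uM final added afterwards for a 110 s antagonist window.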
D2 ag – human D2 receptor agonism in beta-arrestin assay; activation, % (no concentration beside the values); DiscoveRx PathHunter D2 beta-arrestin, luminescence, 90 min; 100% = 57 uM dopamine signal; 0.084% of 360,000 active; in the data active = activation above about 40%; inconclusive = about 15% to 40%; inactive = below about 15%; note: compound concentration not given in the record; the text of the record calls up to 30% inactive
Target sequence (P14416 whole entry, looked up): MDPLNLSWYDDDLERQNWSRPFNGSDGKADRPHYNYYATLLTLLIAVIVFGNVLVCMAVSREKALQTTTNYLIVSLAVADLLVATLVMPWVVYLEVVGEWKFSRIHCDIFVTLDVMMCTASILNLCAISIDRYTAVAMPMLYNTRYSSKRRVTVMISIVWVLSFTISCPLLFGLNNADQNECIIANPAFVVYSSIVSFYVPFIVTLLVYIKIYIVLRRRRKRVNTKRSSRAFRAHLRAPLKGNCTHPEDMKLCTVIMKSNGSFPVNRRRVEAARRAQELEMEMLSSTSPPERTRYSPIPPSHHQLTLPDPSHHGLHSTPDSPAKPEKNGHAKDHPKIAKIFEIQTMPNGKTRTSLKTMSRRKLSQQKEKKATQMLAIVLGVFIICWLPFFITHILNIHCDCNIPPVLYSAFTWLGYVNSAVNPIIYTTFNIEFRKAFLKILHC
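Agonist mode: compounds alone added to overnight-plated D2 PathHunter cells for 90 min at 37 C, with 57 uM final dopamine (EC100) defining full response. Beta-arrestin recruitment detected by chemiluminescent reagent, read after 1 h at ambient temperature.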
D2 PAM – potentiates the human D2 dopamine receptor allosterically; DiscoveRx D2 beta-arrestin cells, luminescence, 90 min; 100% = 57 uM dopamine signal; potentiation, % (concentration not given with the values); 0.23% of 360,000 active; AID 624464; active = potentiation of 50% or more; inconclusive = 30% to 50%; inactive = 30% or less;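 note: compound concentration not given in the record; tested on top of an EC20 dose of dopamine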
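PathHunter beta-arrestin assay in DiscoveRx D2 cells. Compounds were added with an EC20 of dopamine (50 nM final) for 90 min at 37 deg C. Luminescence was read 1 h after detection reagent, with 57 uM dopamine as the EC100 control.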
PINK1 expr mod – changes PINK1 expression; AID 624263; 0.2% of 410,000 active; Potency, µM (titrated, usually from 76.6 µM), for inactives: top-dose activation (PINK1 increase), most hits filed as activators; PINK1 immunofluorescence, high-content cytometry, 24 h; active = well fitted activation curve with a large enough effect; inconclusive = small, poorly fitted or top-dose-only effect; inactive = flat fitted curve, though single readings scatter; cell line not stated here;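 note: potency is the fitted concentration of half-maximal effect; % of control where 0% means no effect; nearly all actives have a fitted effect of over 65% in size; a mitochondrial uncoupler was the plate control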
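Fluorescence from anti-PINK1 antibody, together with nuclear and cell stains, was scanned on a laser-scanning cytometer. Before staining, stable-line cells were incubated 24 hours with compounds at 5 concentrations; primary antibody 12 h at 10 degrees C.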
The depositor's hits bear a star; ? = inconclusive; . = not tested or not shown; & = joins results of further samples; [ ] = another dose, or the depositor's remark.

Values in the order: Six1-Eya2 blk, CtBP-E1A inh, TRPML1 ag, D2 ag, D2 PAM, PINK1 expr mod
1) CCN1CCCC1CNS(=O)(=O)c1cc(Br)cc2c1N(C(=O)C1CC1)CC2 (configuration not stated)
    0, -2, 0.6, -5.2, -26, -0.5%
2) Cc1cc2cc(CNC(=O)c3ccc(Br)o3)ccc2n1C
    ?, -5, -0.2, -3.9, -6, 3.1%
3) CCN1CCN(C2CCCCC2NS(=O)(=O)c2ccccc2)CC1 (configuration not stated)
    0, 0, -0.5, -10, -25, 0.8%
4) Fc1ccc(C2CC(c3ccccc3)n3ncnc3N2)cc1 (configuration not stated)
    3, 10, 0.2, -0.8, -3, -3.2%
5) CCn1c(CSc2nnc(-c3ccncc3)n2C)nc2cc(C(=O)O)ccc21
    3, 5, -0.1, 1.0, -2, -0.1%
6) COc1ccccc1CN(Cc1nc2ccccc2c(=O)[nH]1)C(=O)Nc1ccccc1C
    2, -1, 0.6, -3.6, -22, 15%[38.3 µM]
7) Cc1ccc(/C=N/NC(=O)CSc2nc3ccccc3o2)cc1
    -87*, -93*, 0.1, -2.7, -16, 9.7%
8) NC(=O)c1nn(-c2ccccc2)nc1N
    0, 10, 0.2, -3.0, 5, 0.5%
9) CCOC(=O)c1c(NC(=O)CN2CCC(C)CC2)sc(C)c1C
    11, -7, -0.7, -3.0, -8, ?
10) COc1ccc(N(C)S(=O)(=O)c2cccc(C(=O)N3CCN(S(=O)(=O)c4ccc(C)cc4)CC3)c2)cc1
    0, -4, 1.2, -2.1, 11, 2.3%
11) CCC1CCCCN1CCCNC(=O)c1ccc(N2CCCC2=O)cc1 (configuration not stated)
    0, -2, -0.7, -8.7, -8, 1.4%
12) CC(C)CCNC(=O)C(c1cccs1)N(CC1CCCO1)C(=O)Cn1nnc2ccccc21 (configuration not stated)
    2, -1, -0.2, 0.4, -12, 3.6%
13) N#Cc1ccc(CN2CCN(C(=O)c3cc(Cl)c4c(c3)OCCO4)CC2)cc1
    -1, ., -0.2, 1.1, 9, -0.4%
14) CCOC(=O)c1cnc(SC)nc1Sc1cc(Cl)ccc1Cl
    29, 5, 2.4, -2.6, -18, 1.3%
15) Cc1nc2ccc(S(=O)(=O)NCC(=O)NCCN3CCCCCC3)cc2s1
    -1, -9, -1.1, -1.3, 14, -1.1%
16) CCOc1ccc(C(=O)NC2CCCCCCC2)cc1
    2, 6, 0.4, -6.5, -5, 8.2%
17) Cc1ccccc1-c1noc(N)c1C#N
    1, 5, -0.5, 13, 76*, -6.7%[38.3 µM]
18) Cc1cc(C)n(CCc2nc(-c3ccc(C)o3)cs2)n1
    -14, -8, -1.1, -4.1, -12, -0.9%
19) N#C/C(=C\c1cccc([N+](=O)[O-])c1)C(=O)NCc1cccnc1
    -12, 14, -0.1, 2.9, 0, -0.6%
20) CN(C)c1ccc(N=Nc2ccccc2C(=O)OCC(=O)Nc2ccccc2C(F)(F)F)cc1
    -71*, -29, 1.6, -6.4, -14, 5.0%
21) CCOc1ccc(N(CC(=O)Nc2cccc(C)c2C)S(=O)(=O)c2c(C)[nH]c(=O)[nH]c2=O)cc1
    3, ., -0.1, -6.0, -15, 0.9%
22) CSCCC(NS(=O)(=O)c1ccc2c(c1)OCCO2)C(=O)N(C)Cc1ccc(F)cc1 (configuration not stated)
    -6, 2, -0.2, 2.2, -10, -1.4%
23) CCOC(=O)CSc1nc2c(c(-c3ccc(C)o3)c1C#N)CCCC2
    7, 6, 1.0, -2.0, -6, -0.6%
24) COc1ccc(-n2c(-c3ccc(Br)cc3)c[n+]3c2SC(C)C3)cc1 (configuration not stated)
    -10, 1, -0.3, 1.7, -9, 5.9%
25) CC[C@H](C)[C@H](NC(N)=O)C(=O)Nc1ccc(C)cc1
    11, 5, -0.5, 0.2, -13, 0.0%
26) COC(=O)/C=C1\S/C(=N\N=C\CC(=O)OC)NC1=O
    -28, -18, 1.8, -0.6, -13, 0.0%
27) O=C(Nc1ccc2c(c1)OCO2)N1CCN(c2ccccc2)CC1
    -4, 6, -0.1, -2.4, -5, 0.9%
28) COc1ccc(S(=O)(=O)N(CCc2ccccc2)CC(=O)O)cc1Cl
    0, 42, -0.7, -3.9, -7, 1.0%[38.3 µM]
29) CC(C)(C)c1ccc(S(=O)(=O)C(C)(C)C)cc1
    4, ., 1.1, 5.6, 1, 2.2%
30) COc1ccc(CCN2CN(S(=O)(=O)c3ccccc3)c3nc4ccccc4nc32)cc1OC
    -7, -5, 0.3, 0.1, 13, -0.9%
31) O=C(c1ccc(Br)o1)N1CCC(c2nc3ccccc3[nH]2)CC1
    -9, 1, 0.3, 1.7, -28, -1.0%
32) CCc1nc2ccc(C(=O)NCc3ccc4c(c3)OCO4)cn2c1N(CC)Cc1cccc(Br)c1
    1, -5, -0.5, -2.1, -5, -0.3%
33) CC(C)C[C@H](NC(=O)NC1CCCc2ccccc21)C(=O)O (some centres not stated)
    12, -2, 2.3, -2.1, -3, -2.0%
34) COc1ccc(NC(=O)c2cc(-c3ccc(F)cc3OC)n[nH]2)c(C)c1
    -12, -6, -1.2, 2.2, 3, 9.9%
35) CCOc1cccc(NC(=O)C(Cc2cccs2)c2nn[nH]n2)c1 (configuration not stated)
    0, 4, 0.2, -1.7, -13, .
36) O=C(NNc1cc(N2CCOCC2)nc(N2CCOCC2)n1)c1ccc(Cl)c(Cl)c1
    -5, 5, 0.2, -4.3, -10, ?
37) Cc1ccc(C)c(N2C(=O)c3ccc(C(=O)OCC(=O)c4c(N)n(C)c(=O)n(C)c4=O)cc3C2=O)c1
    -9, -13, 2.7, 1.3, -8, -1.2%
38) CCOCCCN1C(=O)C2C(C(=O)Nc3ccc(OCC)cc3)C3C=CC2(O3)C1C(=O)NC1CCCCC1 (configuration not stated)
    12, 18, -1.1, -5.1, -5, 5.2%
39) CCc1ccccc1NC(=O)CCc1c(C)nn(-c2ccc(N3CCOCC3)nn2)c1C
    3, -13, -0.1&-0.6, -2.6, -3, 0.8%&1.7%
40) CON(C)S(=O)(=O)c1cccc(C(=O)Nc2cccc(S(=O)(=O)NC3=NCCCCC3)c2)c1
    -1, 4, 0.7, 6.5, -1, 2.1%

Grouped by structure: those above containing a thiophene ring, fused or not
Values in the order: Six1-Eya2 blk, CtBP-E1A inh, TRPML1 ag, D2 ag, D2 PAM, PINK1 expr mod
9) CCOC(=O)c1c(NC(=O)CN2CCC(C)CC2)sc(C)c1C
    11, -7, -0.7, -3.0, -8, ?
12) CC(C)CCNC(=O)C(c1cccs1)N(CC1CCCO1)C(=O)Cn1nnc2ccccc21 (configuration not stated)
    2, -1, -0.2, 0.4, -12, 3.6%
35) CCOc1cccc(NC(=O)C(Cc2cccs2)c2nn[nH]n2)c1 (configuration not stated)
    0, 4, 0.2, -1.7, -13, .

Further results.
Values in the order: Six1-Eya2 blk, CtBP-E1A inh, TRPML1 ag, D2 ag, D2 PAM, PINK1 expr mod
41) Cc1c(C(=O)C(C)C)n(C)c2ccccc12
    5, 1, -0.3, 0.1, 3, 10.0%
42) Cc1cc(Br)ccc1NC(=O)CN(C)C(=O)C1CCN(C(=O)c2ccc(F)cc2)CC1
    -4, 3, 0.2, -1.3, 15, 1.6%
43) C[C@H]1CN([C@@H](C)CO)C(=O)c2cc(C#CC3CCCC3)cnc2O[C@H]1CN(C)C(=O)Cc1ccccn1
    12, 0, 0.9, 1.5, -1, -0.8%
44) CC1CCCCN1C(=O)COC(=O)/C=C/c1ccc2ccccc2n1 (configuration not stated)
    -1, ., 0.8, -1.5, -2, 3.4%
45) Cc1nn(S(=O)(=O)c2ccc(Cl)cc2)c(C)c1Sc1ccc([N+](=O)[O-])cc1
    1, 9, 0.4, -0.3, -1, -0.4%
46) CCS(=O)(=O)c1ccc(-c2csc(-c3ccc(Cl)cc3)n2)c(Cl)c1Cl
    0, 8, 0.5, -0.6, -4, 29%
47) CC(C)CCNC(=O)c1csc2c1CCCCC2
    17, 9, 1.4, 0.8, -3, 1.7%
48) CCN(C(=O)COC(=O)CSc1cc(C)c2ccccc2n1)c1ccccc1
    2, 8, 1.3, -2.9, -7, -1.4%
49) S=C1NC2=C(CCC/C2=C\c2ccccc2)C(c2ccccc2)N1 (configuration not stated)
    -12, -13, -0.2, -7.3, -27, 6.3%
50) CC1CC(C)C[N+](=C2C=C(N3CCCC3)CC(C)(C)C2)C1 (configuration not stated)
    4, -1, 1.2, -19, -1, ?
51) O=C(NC(=S)NNS(=O)(=O)c1ccccc1)c1ccccc1[N+](=O)[O-]
    -8, -19, 0.5, -0.3, -16, -0.8%
52) COc1cc(NC(=O)c2cccc(C)c2)ccc1NC(=O)c1cc2ccccc2o1
    -1, ., -0.4, 2.9, 3, 8.6%
53) O=C1c2ccccc2C(=O)N1CCc1nc2ccccc2c(=O)n1-c1ccccn1
    0, 4, -0.7, -4.3, 22, 1.0%
54) Cc1cc(=O)n(CC(C)O)c(O)c1C#N (configuration not stated)
    3, 8, 0.0, 4.9, 62*, 0.1%
55) CO/N=C/NC(=O)NOCc1c(Cl)cccc1Cl
    3, -8, -0.9, -1.0, 8, 0.0%
56) OC(CCc1cccc(Cl)c1)c1cccs1 (configuration not stated)
    4, ., 1.4, 2.1, -11, 0.9%
57) Cc1nnsc1C(=O)NNC(=O)c1ccc(C(F)(F)F)cc1
    -7, -1, 0.0, -19, -12, 1.4%
58) CCOc1ccc(OCc2ccc(C(=O)N3CCc4ccccc4C3)o2)cc1
    -4, 7, 1.8, -1.1, -15, .
59) Cc1ccccc1Nc1ccc2nonc2c1[N+](=O)[O-]
    -2, 0, 1.0, -2.4, -8, 0.1%
60) O=S(=O)(c1ccccc1)c1nc(NC2CC2)sc1Cl
    9, -7, -0.6, -6.4, -19, 0.4%
61) CC1CCCN(C(=O)c2cccc(S(=O)(=O)N3CCCc4ccccc43)c2)C1 (configuration not stated)
    -2, 5, 0.1, -1.9, -1, 0.9%
62) Cc1cccc(-n2cc(CNCCN3CCOC3=O)c(-c3cccc(F)c3)n2)c1
    -3, -7, 0.7, -0.5, -10, -0.6%
63) O=C(O)c1ccsc1Cc1cccs1
    7, 0, -0.1, -1.9, -1, 1.7%
64) COCCNC(=O)CN(Cc1ccc(F)cc1)C(=O)CCC(=O)Nc1nccs1
    -3, 0, -0.2, 1.3, -2, 0.5%
65) CC(C)C(c1nnnn1Cc1ccccc1)N1CCC(C(N)=O)CC1 (configuration not stated)
    18, 3, 0.2, 0.3, 0, -1.6%

Compound activity as filed in PubChem BioAssay.

Rows are unselected; about 1.3% have a hit in one of these screens.
